# Compound activity as filed in PubChem BioAssay.
# PK Bst: pyruvate kinase (B. stearothermophilus) modulation; 51,000 compounds, 1.2% hits; partly purified Bacillus stearothermophilus pyruvate kinase, luminescence ATP production; ribose 5-phosphate activator present at AC10; Potency, µM; in the data active means potency below about 11 µM; inconclusive means mostly about 12 µM to 25 µM; inactive means weaker than that;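 the screen sought inhibitors and activators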;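 further: potency means the concentration at half of the fitted maximal effect; scaled between full activation by ribose 5 phosphate and full inhibition by luteolin; about four in five hits inhibit and the cells do not say which; series up to 57 µM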
# TsaE inh: inhibitors of E. coli YjeE (TsaE). purified YjeE, fluorescence polarisation of a bound ADP probe. Potency, µM. 71,000 compounds, 0.05% hits. AID 605; active = well fitted falling curve; inconclusive = weaker or top-dose-only fall, or a rising curve; inactive = flat or poorly fitted curve;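 further: top concentration of the series not given in the record; excess ADP was the control for the full effect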
#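 Fluorescence polarization of a BODIPY Texas Red–ADP probe (2 uM) bound to purified YjeE (10 uM) was read after 15 min room-temperature incubation with compounds. Loss of polarization marks inhibitors; ADP serves as titrated control.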
# * = called active by the depositor; i = inactive; / = no result given.
Molecule,PK Bst,TsaE inh
CC(C)C(OC(=O)c1ccco1)C(=O)NC1CCCCC1 (configuration not stated),>57,i
COc1ccccc1NC(=O)CSc1nccc(=O)[nH]1,>57,i
O=C(O)CCc1ccc(-c2ccccc2)n1NC(=O)c1ccco1,>57,i
COc1cccc(-c2nnc3sc(-c4ccc(Cl)cc4)nn23)c1,>25.6,/
O=C(Oc1ccc(-c2cnc3ccccc3n2)cc1)c1ccco1,/,i
Cc1cc(C)n(-c2nc3c(c(=O)[nH]c(=O)n3C)n2Cc2ccc(F)cc2)n1,>57,i
C/C(Nc1ccc(F)cc1)=C(/C#N)C(N)=O,i,i
CCS(=O)(=O)c1nc(NC(C)=O)n[nH]1,>57,i
O=C(CCCNS(=O)(=O)c1ccc(Br)cc1)N1CC[C@@]2(O)CCCC[C@H]2C1,>57,i
Cn1cc(-c2nc3cnc(N4CCNCC4)nc3n(C)c2=O)c2ccccc21,/,i
CCOc1cccc(NC(=O)Cc2cccs2)c1,/,i
O=C(CN(CC(=O)N1CCOCC1)S(=O)(=O)c1ccc(Br)s1)N1CCOCC1,>57,i

# One compound at a time (already shown). Screens in order: PK Bst, TsaE inh
# Shown for COc1ccccc1NC(=O)CSc1nccc(=O)[nH]1 : >57, i
# Shown for O=C(CCCNS(=O)(=O)c1ccc(Br)cc1)N1CC[C@@]2(O)CCCC[C@H]2C1 : >57, i
# Shown for Cn1cc(-c2nc3cnc(N4CCNCC4)nc3n(C)c2=O)c2ccccc21 : /, i
# Shown for O=C(O)CCc1ccc(-c2ccccc2)n1NC(=O)c1ccco1 : >57, i
# Shown for CC(C)C(OC(=O)c1ccco1)C(=O)NC1CCCCC1 (configuration not stated) : >57, i

# Carrying on.
Molecule,PK Bst,TsaE inh
CC(=O)C1=C(O)C(=O)N(c2ccc(Br)cn2)C1c1ccccc1F (configuration not stated),>25.6,/
Oc1ccccc1CNn1cnnc1,>25.6,/
Cc1c(NC(=O)c2cc(C(C)C)on2)c(=O)n(-c2ccccc2)n1C,>57,i
COc1cccc(Cn2c(=O)c(-c3cccs3)nc3cnc(N4CCN(C)CC4)nc32)c1,/,i
OCCCNCc1ccncc1,/,i
CCOc1ccc(N(CC)C(=O)COc2cc(=O)n(C)c3ccccc23)cc1,/,i
Cc1nc(Nc2ccccc2)[nH]c(=O)c1CCC(C)C,>57,i
CCOC(=O)N1CCN(C(=O)C2CC(c3cc(OC)ccc3OC)=NO2)CC1 (configuration not stated),>57,i
COc1cccc(C2=NOC(C(=O)NC(C)(C)C)C2)c1 (configuration not stated),>57,i
COc1ccccc1N(CC(=O)Nc1ccc2c(c1)OCO2)S(=O)(=O)c1ccccc1,/,i
COc1ccc(-c2cc(=O)c3ccccc3s2)cc1,0.875*,i
CCN1CCN(c2ncc3c(n2)CC(c2ccc(OC)c(OC)c2)CC3=O)CC1 (configuration not stated),>57,i
CCCN(c1nc(C)cc(OC)n1)S(=O)(=O)c1ccccc1,>57,i
CC(Nc1ccc(Br)cn1)c1cc(Cl)ccc1O (configuration not stated),>57,i
CCCCn1c(SCc2nnc(-c3ccccc3)o2)nc2c1c(=O)n(C)c(=O)n2C,>57,i
CC(=O)Nc1cccc(C(=O)Oc2cccc(C)c2)c1O,>57,i
CC(C)c1nc2sc3c(NCc4ccco4)ncnc3c2c2c1COC(C)(C)C2,>57,i
CC(=O)c1ccc(N2CCN(C(=O)C3CCCN(S(=O)(=O)c4cnc[nH]4)C3)CC2)cc1 (configuration not stated),>57,i
CCCc1cc(-c2ccc(O)c(OCC)c2)c(C#N)c(N)n1,>57,i
COC(=O)c1ccc(C(NC(=O)OCc2ccccc2)/C(F)=C/[C@@H](C)C(=O)NCCO)cc1 (some centres not stated),/,i
O=C(NC1CCS(=O)(=O)C1)c1ccc(S(=O)(=O)NCC2CCCO2)cc1 (configuration not stated),>57,i
O=C(Nc1ccc(NC(=O)c2ccco2)cc1)c1cnccn1,/,i
CCOC(=O)C1=C(N)OC2=C(C(=O)CC(C)(C)C2)C1c1ccco1 (configuration not stated),>57,i
C/C(=N\O)C1(C)N(O)C(C)(C)C(c2ccco2)=[N+]1[O-] (configuration not stated),>25.6,/
Cc1cc(C)nc(Sc2ccc3nnnn3n2)n1,>57,i
Nc1nnc(SCC(=O)Nc2ccccc2N2CCOCC2)s1,>57,i
CN(C)C(=O)c1ccc(-c2cncnc2NCCN2CCOCC2)cc1,/,i
O=c1nc(NCc2ccco2)sc2ncccc12,>57,i
O=C(CSc1nnc(Cc2cc(=O)[nH]c(=O)[nH]2)n1-c1ccc(Cl)cc1)NCC1CCCO1 (configuration not stated),>57,i
Cc1c(NC(=O)c2cccc(NC(=O)c3ccco3)c2)cccc1C(=O)O,>57,i
CCOC(=O)N1CCC(NC(=O)c2cccc3c2C(=O)N(CCOC)C3)CC1,/,i
Cn1nnc2cc(C(=O)Nc3cccnc3)ccc21,>57,i
CC(C)OC(=O)CSc1nnc(-c2cccnc2)n1Cc1ccccc1,>57,i
COc1cccc(-c2nnc(SCC(N)=O)n2-c2ccc(Cl)cc2)c1,>57,i
Cc1n[nH]c(C)c1S(=O)(=O)N(CC(=O)N1CCc2ccccc21)c1ccc(C(C)C)cc1,/,i
Nc1nc2n(n1)C(c1cccs1)CC(c1ccccc1)N2 (configuration not stated),>57,i

# Following part.
SMILES	PK Bst	TsaE inh
CSc1ccc(Cl)c(C(=O)NCC(C)C)c1	>57	i
COc1ccc(C2(O)CCN(C(=O)c3ccc4c(c3)OCO4)CC2)cc1	>57	i
Nc1ccc(C(=O)c2ccc3c(c2)OCCO3)cc1N	/	i
COc1ccc(CCC(=O)NCc2cnn(C)c2)cc1	>57	i
CC(C)/C=C1\CCCCC1N(C)C(=O)NC(C)C (configuration not stated)	/	i
Cc1ccc(S(=O)(=O)CC(=O)Nc2ccc(S(=O)(=O)Nc3onc(C)c3C)cc2)cc1	>57	i
CC(=O)C1C(c2cccc(F)c2)NC(=O)NC1(O)C(F)(F)F (configuration not stated)	>57	i
COc1ccc(S(=O)(=O)N2CCCC2C(=O)Nc2nc3c(s2)CCCC3)cc1 (configuration not stated)	>57	i
CCOC(=O)c1c(NC(=O)c2csc(C)c2)sc(C(C)=O)c1C	>57	i
Cc1[nH]nc2c1C(C(C)C)C(C#N)=C(N)O2 (configuration not stated)	>57	i
CCN(CC)CCN1C(=O)C(O)=C(C(C)=O)C1c1ccccc1 (configuration not stated)	>57	i
COc1ccc(C2(O)CC3CCC(C2)N3c2nc(C)cc(C)c2C#N)cc1 (configuration not stated)	>57	i
Cc1cc2ncn(/N=C/c3cc(Br)ccc3O)c2cc1C	>57	i
O=C(CCN1Cc2ccccc2C1)c1ccc2c(c1)OCCO2	>57	i
N#Cc1c(N)nc(SCC(=O)NCc2ccc3c(c2)OCO3)c(C#N)c1-c1cccs1	>25.6	/
CCCn1c(C)nc2c(NC(C)CN(C)C)nc(C)nc21 (configuration not stated)	/	i
COc1cccc(N(C(=O)c2ccn[nH]2)C2(C(=O)Nc3c(C)cccc3C)CCCCC2)c1	>57	i
COc1ccc(Cc2nnnn2CC(=O)O)cc1	>57	i
CNC(=O)NC(=O)CSc1cccc(C(F)(F)F)c1	>57	i
O=C(c1cc(F)c(F)cc1Cl)N1CCOCC1	/	i
CCOC(=O)c1c(NC(=O)CSc2nc(C)cc(C)c2C#N)sc(C(C)=O)c1C	>57	i
Cc1ccc(-c2cc(C(F)(F)F)n3ncc(C(=O)N4CCN(C)CC4)c3n2)cc1	/	i
O=C1NC(c2ccco2)Nc2ccccc21 (configuration not stated)	>57	i
O=C(Cn1nnc(-c2ccc3c(c2)OCO3)n1)NCc1ccco1	>57	i
COCC(=O)N1CCC2(CC1)CN(Cc1nccs1)C2	/	i
O=C(O)c1ccccc1OCCOc1ccccc1	>57	i
Cc1cc(C(=O)Nc2ccc3c(c2)OCCO3)c(C)o1	i	i
Brc1ccccc1Cn1c(-c2cncs2)nc2ccccc21	/	i
Nc1ccc(N2CCCCC2)cc1N1CCCCC1	>57	i
Cn1c(=O)c2c(ncn2CC(=O)N2CCN(c3ccccc3F)CC2)n(C)c1=O	/	i
O=C(CCC1CCCC1)NCc1ccccn1	>57	i
O=C(CCC(=O)N1CCCc2ccccc21)N1CCN(S(=O)(=O)c2ccccc2)CC1	>57	i
Cc1c(C(=O)OCCOC(C)C)[nH]c2c1C(=O)CC(C)(C)C2	/	i
Cc1ccc(-c2nc3ccccc3o2)cc1NC(=O)c1ccc2c(c1)OCO2	/	i
COc1ccccc1NC(=O)CN1CCN(c2ccc(Cl)cc2)CC1	>57	i
O=C(O)c1cn(-c2ccccc2)nc1-c1cccnc1	>57	i
Cc1ccc(Oc2cc(C)nc(-c3ccccc3O)n2)cc1	>57	i
CCC(Oc1ccc(C)c(C)c1)C(=O)O (configuration not stated)	>57	i
O=C(CCn1nc(-c2ccc(Cl)cc2)ccc1=O)N1CCN(c2ccccn2)CC1	>57	i
Cc1cnc(CNc2ncncc2-c2ccoc2)cn1	/	i
O=C(O)C1C2C=CC(C2)C1C(=O)NCCCn1ccnc1 (configuration not stated)	>57	i
CC1=C(C(=O)Nc2ccc(C)cc2)C(c2ccc(C)o2)C2=C(CC(C)(C)CC2=O)N1 (configuration not stated)	>57	i
Cc1ccc(NC(=O)Cn2cnc3c(=O)n(C)c(=O)n(C)c32)c(C)c1	>57	i
O=c1[nH]c2cc3c(cc2cc1CN(Cc1cccs1)Cc1nnnn1Cc1ccco1)OCCO3	>57	i
O=C(O)CCc1nn2c3ccccc3nc2n(-c2ccccc2)c1=O	>57	i
COc1cccc(CNC(=O)C2CCN(c3cnccn3)CC2)c1	>57	i
CCCCCCCCCCCCOS(=O)(=O)O	/	i
O=C(O)c1ccccc1Nc1cccc(C(F)(F)F)c1	>11.4	i
COc1ccc(-c2noc(CCC(=O)N3CCN(c4cccc(C(F)(F)F)c4)CC3)n2)cc1	>57	i
CC(=O)Nc1cccc(NC(=O)c2cc(C)on2)c1	>57	i

# A stretch from further up, as a working copy:
SMILES	PK Bst	TsaE inh
O=C(O)CCc1nn2c3ccccc3nc2n(-c2ccccc2)c1=O	>57	i
COc1cccc(CNC(=O)C2CCN(c3cnccn3)CC2)c1	>57	i
CCCCCCCCCCCCOS(=O)(=O)O	/	i

# Later entries.
SMILES	PK Bst	TsaE inh
O=C(CSCSCC(=O)Nc1ccc2c(c1)OCO2)Nc1ccc2c(c1)OCO2	>57	i
CC1Cc2cc(/C(O)=C3/C(=O)C(=O)N(CCCn4ccnc4)C3c3ccco3)ccc2O1 (configuration not stated)	>57	i
CCN(CC)S(=O)(=O)c1cccc2cc(C(=O)O)c(O)cc12	>57	i
O=C(Nc1ccccn1)Nc1cccs1	/	i
CCOCCCNC(=O)N[C@@H](Cc1ccccc1)C(=O)OC	>57	i
COCCCn1c(=N)c(C(=O)NCC2CCCO2)cc2c(=O)n3ccccc3nc21 (configuration not stated)	>57	i
CCCCOc1nc2ccccc2nc1C(C#N)C(=O)NC1CCCCC1 (configuration not stated)	>11.4	/
CC(C)Oc1ccc(C2CC(=O)NC3=C2C(=O)CCC3)cc1 (configuration not stated)	>57	i
Cc1ccc(S(=O)(=O)NCCC(=O)Nc2ccc3c(c2)OCO3)cc1	/	i
Cc1cc(=O)[nH]c2c1c(=O)[nH]n2C1CC(C)N(C)CC1C (configuration not stated)	>57	i
CCCCCNc1nc(N2CCCC2)c2c(c1C#N)CCN(C)C2	>25.6	/
Cc1ccc(S(=O)(=O)Nc2ccccc2C(=O)c2ccc(C)c(C)c2)cc1	/	i
O=C(NC1CCCCC1)c1cc2nc(-c3ccco3)cc(C(F)(F)F)n2n1	>57	i
COC(=O)C1=C(C)OC(N)=C(C#N)C1c1ccc(OC)c(OC)c1OC (configuration not stated)	>25.6	/
COc1ccc(CNC(=O)[C@H](C)[C@@H]2C[C@@]2(C)[C@@H](NC(=O)OCc2ccccc2)c2ccccc2)cc1OC	/	i
O=S(=O)(Nc1ccc(Cc2ccncc2)cc1)N1CCCC1	>57	i
Cn1nc(-c2ccc(Cl)cc2)c2cc(C(=O)NC3CC3)sc21	/	i
O=C(Nc1ccccc1N1CCN(C(=O)c2ccc(Cl)cc2)CC1)c1ccc2c(c1)OCO2	>57	i
O=C1CC(NCc2ccncc2)C(=O)N1c1ccc(Cl)cc1 (configuration not stated)	>25.6	/
CCC(=O)N1CCN(CCN=CC2=C(O)CC(c3cccs3)CC2=O)CC1 (configuration not stated)	/	i
Cc1ccc(-c2cc(C(=O)O)n[nH]2)o1	>57	i
COc1ccc(-n2c(CSc3nc(C)cc(C)n3)nnc2SCC(=O)Nc2nccs2)cc1	>57	i
CCC1Oc2ccccc2N(CC(=O)NCCN2C(C)CCCC2C)C1=O (configuration not stated)	>57	i
O=C(Nc1ncc2c(n1)CC(c1ccco1)CC2=O)c1ccccc1 (configuration not stated)	>57	i
Cn1cnnc1SCC(=O)N(Cc1ccc2c(c1)OCO2)C1(C(=O)NC2CCCCC2)CCCC1	>57	i
CCOC(=O)CSc1nnc2n(Cc3ccccc3)c(=O)c3c4c(sc3n12)CCC4	5.06*	/
CCOCCCNC(=O)C1CC(=O)N(C2CCCC2)C1 (configuration not stated)	>57	i

# Reformatted as labelled records: 2 of the compounds above.
O=C1CC(NCc2ccncc2)C(=O)N1c1ccc(Cl)cc1 (configuration not stated)
- PK Bst: >25.6
- TsaE inh: /
CCC(=O)N1CCN(CCN=CC2=C(O)CC(c3cccs3)CC2=O)CC1 (configuration not stated)
- PK Bst: /
- TsaE inh: i

# This is a subset, so the mix of outcomes need not match the whole.
